# Assay outcomes deposited in PubChem BioAssay by Broad Institute.
# Ecoli rRNA inh: reduced GFP signal of wild-type E. coli, primary screen, bacterial rRNA inhibitor project, GFP/RFP fluorescence, OD600, single point. E. coli WT GFP vs humanized-ribosome RFP mutants, 24 h; active compounds read low; DMSO median 0, no signal -100. GFP signal change (wild-type ribosome), % (test concentration not listed). 1.6% of 350,000 active. AID 720706, 2013;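 active means significant combined selectivity score with lowered wild-type GFP, culture density cut under 30%, mutant RFP and density less affected; inactive means any of these conditions unmet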; further: one replicate is shown; some compounds called inactive have numbers as strong as hits
# FGF22 binding: binders of human FGF22 protein, primary screen, FGF22 synaptogenesis inhibitor project, biophysical, thermal shift, single point; recombinant FGF22 thermal shift, SYPRO orange fluorescence; percent of sucrose octasulfate shift, DMSO zero; calls only at 9.99 µM; 1.5% of 340,000 active;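 active means melting point raised past a set limit in the mean and every replicate; three in four hits are not shown here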
# Target sequence (Q9HCT0 whole entry, looked up): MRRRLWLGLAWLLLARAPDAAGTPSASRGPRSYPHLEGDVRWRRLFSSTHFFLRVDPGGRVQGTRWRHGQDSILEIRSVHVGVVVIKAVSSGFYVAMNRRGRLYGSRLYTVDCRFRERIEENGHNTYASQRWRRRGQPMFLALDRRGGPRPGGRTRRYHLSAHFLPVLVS
# Ecoli rRNA inh OD600: also measured in Ecoli rRNA inh; calls as there; OD600 change, %; measured here: OD600 growth;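 optical density of the mix in the first replicate; 0 = DMSO median and -100 = no signal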
# Ecoli rRNA inh RFP: second read-out of Ecoli rRNA inh, no call of its own (marks repeat the call); RFP signal change, %; measured here: RFP humanized mutant strains;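 first replicate; 0 = DMSO median and -100 = no signal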
# Starred values were filed as active, the others as inactive; i = inactive; & = joins results of further samples. Some of the compounds tested; count on the stated rates, not on these rows.
# Screens by letter: A = Ecoli rRNA inh; B = Ecoli rRNA inh OD600; C = Ecoli rRNA inh RFP; D = FGF22 binding
1) C[C@@H]1CN([C@H](C)CO)C(=O)Cc2cc(NS(=O)(=O)c3cccs3)ccc2O[C@@H]1CN(C)S(=O)(=O)c1ccc(F)cc1
  A = -2 | B = -13 | C = -0.9 | D = i

2) COc1ccc(NC(=O)N2CC3(C2)CN(CC2CC2)[C@H](CO)c2c3c3ccc(OC)cc3n2C)cc1
  A = -7 | B = -9 | C = 0.2 | D = i

3) C[C@@H]1CN([C@@H](C)CO)C(=O)c2cc(/C=C/c3ccccc3)cnc2O[C@H]1CN(C)C(=O)c1ccc(F)cc1
  A = -6 | B = -23 | C = 6.1 | D = i

4) COc1ccc(C2NC(=S)N(Cc3ccc(Cl)cc3)C(C)=C2C(C)=O)cc1 (stereo not drawn)
  A = -12 | B = -4 | C = 2.3 | D = i

5) CC(C)NC(=O)N1CC2(C1)[C@H](c1ccccc1)[C@@H](CO)N2CCC(F)(F)F
  A = 4 | B = 7 | C = -0.9 | D = i

6) COc1ccc(NC(=O)N2C[C@H](O)COC[C@@H]3O[C@@H](CC(=O)NCc4ccncn4)CC[C@H]32)cc1
  A = -3 | B = -7 | C = 2.1 | D = i

7) C[C@@H]1CCCCO[C@@H](CN(C)C(=O)NC2CCCCC2)[C@H](C)CN([C@@H](C)CO)C(=O)c2cc(NS(=O)(=O)c3cn(C)cn3)ccc2O1
  A = -1 | B = -4 | C = -2.8 | D = i

8) CCC(=O)N[C@H]1C=C[C@@H](CC(=O)NCC2CCCCC2)O[C@H]1CO
  A = 2 | B = 4 | C = -0.9 | D = i

9) C[C@@H]1CN([C@@H](C)CO)C(=O)c2cc(-c3cccc(F)c3)cnc2O[C@@H]1CN(C)C(=O)Nc1cc(F)ccc1F
  A = -3 | B = -7 | C = 1.7 | D = i

10) O=C(O)C[C@@H]1C[C@H]2c3cc(NC(=O)c4ccc5c(c4)OCO5)ccc3O[C@H]2[C@H](CO)O1
  A = 0 | B = 7 | C = -1.5 | D = i

11) CNC[C@@H]1Oc2ccc(NC(=O)Cc3ccccc3)cc2C(=O)N([C@@H](C)CO)C[C@H]1C
  A = 6 | B = 20 | C = 0.5 | D = i

12) CCC(=O)N1C[C@H](C)[C@@H](OC)CN(C)C(=O)c2ccc(NC(=O)c3cnccn3)cc2OC[C@@H]1C
  A = 0 | B = -2 | C = -0.8 | D = i

13) CO[C@@H]1CN(C)C(=O)c2cc(NS(=O)(=O)c3cccc(C)c3)ccc2OC[C@@H](C)NC[C@H]1C
  A = 3 | B = 2 | C = 0.2 | D = i

14) Cc1noc(C)c1NC(=O)Nc1ccc2c(c1)CC(=O)N([C@H](C)CO)C[C@@H](C)[C@@H](CN(C)S(=O)(=O)c1cn(C)cn1)O2
  A = 5 | B = 20 | C = -2.1 | D = i

15) C[C@H]1CN([C@@H](C)CO)C(=O)c2cc(NC(=O)CCCCCC(=O)Nc3ccccc3N)ccc2O[C@@H]1CN(C)C(=O)Nc1ccc2c(c1)OCO2
  A = -1 | B = -6 | C = -1.8 | D = i

16) COc1cccc(C(=O)Nc2ccc3c(c2)C(=O)N(C)C[C@@H](OC)[C@H](C)CN(C(=O)C2CCCCC2)[C@H](C)CO3)c1
  A = 2 | B = 3 | C = 4.1 | D = i

17) O=C(C[C@H]1CC[C@H]2[C@@H](COC[C@@H](O)CN2S(=O)(=O)c2ccccc2F)O1)NCc1ccccc1F
  A = 4 | B = 1 | C = 0.0 | D = i

18) C[C@H]1CN([C@@H](C)CO)C(=O)c2cc(-c3cncnc3)cnc2O[C@@H]1CN(C)Cc1ccc(Oc2ccccc2)cc1
  A = -5 | B = -12 | C = -0.8 | D = i

19) CN1C(=O)c2cc(NC(=O)Nc3ccccc3F)ccc2OC[C@@H]2O[C@@H](CC(=O)O)CC[C@H]21
  A = 7 | B = 10 | C = -1.3 | D = i

20) C[C@H]1CN([C@@H](C)CO)S(=O)(=O)c2ccc(/C=C/c3ccccc3)cc2O[C@H]1CN(C)C(=O)Nc1ccc(F)cc1
  A = 5 | B = 8 | C = -2.4 | D = i

21) C[C@H](CO)N1C[C@H](C)[C@@H](CN(C)C)Oc2ccc(NC(=O)Nc3ccccc3)cc2C1=O
  A = 4 | B = 15 | C = 0.1 | D = i

22) C[C@H]1CCCCO[C@H](CN(C)S(=O)(=O)c2cn(C)cn2)[C@@H](C)CN([C@@H](C)CO)C(=O)c2cc(NS(C)(=O)=O)ccc2O1
  A = 3 | B = -2 | C = -0.9 | D = i

23) C[C@H](NC(=O)C[C@@H]1CC[C@@H](NC(=O)C2CCC2)[C@@H](CO)O1)c1ccccc1
  A = 1 | B = 9 | C = -3.8 | D = i

24) O=C(C[C@H]1CC[C@H](NS(=O)(=O)c2ccccc2F)[C@@H](CO)O1)NCCCN1CCOCC1
  A = 5 | B = 10 | C = -0.1 | D = i

25) C/C=C/c1cnc2c(c1)C(=O)N([C@H](C)CO)C[C@H](C)[C@@H](CN(C)Cc1ccncc1)O2
  A = 0 | B = 2 | C = -3.3 | D = i

# A different layout for some results above.
25. C/C=C/c1cnc2c(c1)C(=O)N([C@H](C)CO)C[C@H](C)[C@@H](CN(C)Cc1ccncc1)O2
  Ecoli rRNA inh = 0
  Ecoli rRNA inh OD600 = 2
  Ecoli rRNA inh RFP = -3.3
  FGF22 binding = i
16. COc1cccc(C(=O)Nc2ccc3c(c2)C(=O)N(C)C[C@@H](OC)[C@H](C)CN(C(=O)C2CCCCC2)[C@H](C)CO3)c1
  Ecoli rRNA inh = 2
  Ecoli rRNA inh OD600 = 3
  Ecoli rRNA inh RFP = 4.1
  FGF22 binding = i

# Fetched by compound from the entries so far, three records:
# Screens by letter: A = Ecoli rRNA inh; B = Ecoli rRNA inh OD600; C = Ecoli rRNA inh RFP; D = FGF22 binding
16) COc1cccc(C(=O)Nc2ccc3c(c2)C(=O)N(C)C[C@@H](OC)[C@H](C)CN(C(=O)C2CCCCC2)[C@H](C)CO3)c1
  A = 2 | B = 3 | C = 4.1 | D = i

10) O=C(O)C[C@@H]1C[C@H]2c3cc(NC(=O)c4ccc5c(c4)OCO5)ccc3O[C@H]2[C@H](CO)O1
  A = 0 | B = 7 | C = -1.5 | D = i

8) CCC(=O)N[C@H]1C=C[C@@H](CC(=O)NCC2CCCCC2)O[C@H]1CO
  A = 2 | B = 4 | C = -0.9 | D = i

# New compounds follow:
# Screens by letter: A = Ecoli rRNA inh; B = Ecoli rRNA inh OD600; C = Ecoli rRNA inh RFP; D = FGF22 binding
26) COc1ccccc1-c1cnc2c(c1)C(=O)N([C@@H](C)CO)C[C@@H](C)[C@H](CN(C)C(=O)c1ccncc1)O2
  A = 0 | B = -4 | C = 1.2 | D = i

27) O=C(NCC1CCN(C(=O)C(=O)c2cc3ccccc3o2)CC1)c1ccc2c(c1)OCO2
  A = -32 | B = -39 | C = -0.8 | D = i

28) C[C@H]1CN([C@@H](C)CO)C(=O)c2cccc(NC(=O)C3CC3)c2O[C@@H]1CN(C)C
  A = 4 | B = 3 | C = -2.0 | D = i

29) COc1ccc2c3c(n(C)c2c1)[C@@H](CO)N(C(=O)CN1CCOCC1)CC31CCN(C(=O)C2CC2)CC1
  A = 1 | B = -3 | C = 0.9 | D = i

30) CCCC(=O)Nc1ccc2c(c1)C(=O)N(C)[C@@H]1CC[C@@H](CC(=O)NCC3CCCCC3)O[C@H]1CO2
  A = 3 | B = 2 | C = 1.4 | D = i

31) COc1ccccc1CNC(=O)C[C@@H]1C[C@H]2c3cc(NC(=O)NC4CCCC4)ccc3O[C@H]2[C@@H](CO)O1
  A = 1 | B = 11 | C = 1.8 | D = i

32) COc1ccc2c3c(n(C)c2c1)[C@@H](CO)N(Cc1cccc(Cl)c1)CC31CCN(C(C)=O)CC1
  A = 3 | B = -9 | C = 2.1 | D = i

33) CO[C@H]1CN(C)C(=O)c2cc(NC(=O)Nc3cccc(F)c3)ccc2OC[C@@H](C)NC[C@H]1C
  A = 1&0 | B = -5&1 | C = -1.3&1.0 | D = i

34) C[C@@H](NC(=O)C[C@@H]1C[C@H]2c3cc(NC(=O)CC4CC4)ccc3O[C@H]2[C@@H](CO)O1)c1ccccc1
  A = 1 | B = 1 | C = -6.2 | D = i

35) C[C@H]1CN([C@@H](C)CO)C(=O)c2cccc(NC(=O)Nc3cccc4ccccc34)c2O[C@@H]1CN(C)C(=O)Nc1ccc(C(F)(F)F)cc1
  A = -1 | B = -8 | C = 1.1 | D = i

36) CO[C@H]1CN(C)C(=O)c2cc(NC(=O)c3ccccc3F)ccc2OC[C@H](C)N(C(C)=O)C[C@H]1C
  A = 4 | B = 2 | C = 2.6 | D = i

37) C[C@@H]1CN([C@@H](C)CO)C(=O)c2cc(C#CC3CC3)cnc2O[C@H]1CN(C)S(C)(=O)=O
  A = 2 | B = -2 | C = -1.8 | D = i

38) C[C@H]1CN([C@@H](C)CO)C(=O)c2cccc(NC(=O)Nc3ccc4c(c3)OCO4)c2O[C@H]1CN(C)Cc1ccc(C(=O)Nc2ccccc2N)cc1
  A = -3 | B = -5 | C = -2.5 | D = i

39) CNC(=O)C[C@H]1CC[C@@H]2[C@H](COC[C@H](O)CN2C(=O)c2ccccn2)O1
  A = 2 | B = -2 | C = 1.3 | D = i

40) COc1cccc(S(=O)(=O)N2CC[C@@H]3[C@@H](CO)Nc4ccc(-c5ccc(C#N)cc5)cc4[C@@H]32)c1
  A = -9 | B = -6 | C = 3.3 | D = i

41) COc1ccc(C#Cc2cnc3c(c2)C(=O)N([C@H](C)CO)C[C@H](C)[C@@H](CN(C)C(=O)CC2CC2)O3)cc1
  A = 1 | B = -19 | C = 4.9 | D = i

42) Cc1ccc(S(=O)(=O)N(C)C[C@@H]2OCc3ccccc3-c3ccccc3C(=O)N([C@@H](C)CO)C[C@@H]2C)cc1
  A = -1 | B = -6 | C = 2.5 | D = i

43) O=C(NC1CCCCC1)N[C@H]1CC[C@H](CCNS(=O)(=O)c2ccc(F)cc2)O[C@@H]1CO
  A = -2 | B = -1 | C = -4.3 | D = i

44) COc1ccccc1-c1cn(CC[C@@H]2CC[C@@H](NC(=O)C3CCOCC3)[C@H](CO)O2)nn1
  A = 0 | B = 2 | C = -2.4 | D = i

45) O=C(C[C@@H]1CC[C@@H](NC(=O)Nc2cc(F)ccc2F)[C@@H](CO)O1)Nc1ccccc1
  A = -3 | B = -1 | C = -0.1 | D = i

46) C[C@@H]1CCCCO[C@@H](CN(C)C(=O)c2ccccc2)[C@H](C)CN([C@@H](C)CO)C(=O)c2cc(NS(=O)(=O)c3ccc(F)cc3)ccc2O1
  A = -7 | B = -10 | C = 4.2 | D = i

47) CCCC(=O)Nc1ccc2c(c1)C(=O)N(C)[C@H]1CC[C@H](CC(=O)NCC(F)(F)F)O[C@@H]1CO2
  A = 3 | B = 4 | C = -1.6 | D = i

48) Cc1cc(C(=O)Nc2cccc3c2O[C@@H](CN(C)Cc2ccc(-c4ccccc4)cc2)[C@@H](C)CN([C@H](C)CO)C3=O)n(C)n1
  A = -6 | B = -3 | C = -4.0 | D = i

49) COCCNC(=O)C[C@@H]1C[C@@H]2c3cc(NC(=O)Nc4ccccc4)ccc3O[C@@H]2[C@H](CO)O1
  A = 1 | B = 1 | C = -1.6 | D = i

50) C[C@H](CO)N1C[C@H](C)[C@H](CN(C)Cc2ccc(Oc3ccccc3)cc2)Oc2ccc(N(C)C)cc2CC1=O
  A = -10 | B = -23 | C = 1.8 | D = i

# Going on with the list.
# The line under a structure holds: Ecoli rRNA inh | Ecoli rRNA inh OD600 | Ecoli rRNA inh RFP | FGF22 binding
51. CC(C)C(=O)Nc1ccc2c(c1)C(=O)N(C)[C@H]1CC[C@H](CC(=O)NCc3ccccc3)O[C@H]1CO2
  3 | 3 | -3.0 | i
52. C[C@@H]1CN([C@@H](C)CO)C(=O)Cc2cc(NC(=O)c3ccncc3)ccc2O[C@H]1CN(C)S(=O)(=O)c1ccc(F)cc1
  3 | 12 | -0.7 | i
53. CCCCCCCCN1C(=O)[C@@H](CC(=O)NCCCC)C[C@@]2(C(=O)OC)C1=C[C@H](C(C)(C)C)O[C@@H]2C
  11 | 10 | -0.2 | i
54. COc1ccc(C(=O)Nc2ccc3c(c2)C(=O)N(C)C[C@H](OC)[C@H](C)CN(C(C)=O)[C@@H](C)CO3)cc1
  -3 | -2 | 1.8 | i
55. COc1ccccc1-c1cnc2c(c1)C(=O)N([C@H](C)CO)C[C@H](C)[C@H](CN(C)Cc1ccc(F)cc1)O2
  -4 | -5 | 0.3 | i
56. COc1ccc2c3c(n(C)c2c1)[C@@H](CO)N(Cc1ccccc1)CC31CN(C(=O)Nc2cccc(F)c2)C1
  -3 | 3 | 1.5 | i
